Assay outcomes deposited in PubChem by National Center for Advancing Translational Sciences (NCATS).
AmpC nodet inh – blocks E. coli AmpC beta-lactamase in absence of detergent; P00811; AmpC nitrocefin hydrolysis, absorbance 480 nm, no detergent; potencies from a single point are estimates; Potency, µM (series often up to 28.7 µM), without a hit: at the top dose activity change, negative = inhibition; hit rate 1.8% among 71,000; AID 585; active = falling curve, for most hits resting on a single point; inconclusive = weak or doubtful change; inactive = flat or rising curve; further: % of control where 0% means no effect; about half of the hits show no inhibition at the top dose; a quarter of the inactives give rising signals
Target sequence (P00811 whole entry, looked up): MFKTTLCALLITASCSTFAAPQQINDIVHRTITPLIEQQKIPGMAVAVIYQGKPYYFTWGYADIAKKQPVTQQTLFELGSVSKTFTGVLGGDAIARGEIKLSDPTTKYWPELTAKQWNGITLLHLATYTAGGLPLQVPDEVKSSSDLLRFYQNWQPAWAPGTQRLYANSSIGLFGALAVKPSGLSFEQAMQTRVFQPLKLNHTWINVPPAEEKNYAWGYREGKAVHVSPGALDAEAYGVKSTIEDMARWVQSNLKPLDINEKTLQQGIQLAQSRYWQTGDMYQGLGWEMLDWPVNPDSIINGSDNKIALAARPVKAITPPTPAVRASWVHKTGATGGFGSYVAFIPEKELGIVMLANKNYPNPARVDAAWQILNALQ
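AmpC, 20 mM phosphate pH 7.0; 15 min cpd preinc, RT; start with nitrocefin (800 uM stock); A480 kinetic read, 20 s intervals, 4 min. No-enzyme wells = negative control.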
* marks the source's active call; other numbers are inactive results; [ ] = remark or other dose. Potency means the concentration at half of the fitted maximal effect. Only part of the results is shown; the hit share may differ from the screen's.

CN(C)CCN1C(=O)c2oc3ccccc3c(=O)c2C1c1cccc(Br)c1 (stereo not drawn) was read as AmpC nodet inh 38%.
For Cn1c(=O)c2c(-c3ccccc3)n(-n3cnnc3)cc2n(C)c1=O the results were AmpC nodet inh -8%.
For CC1(C(=O)NCc2cc(F)cc(C(F)(F)F)c2)C=CC2(CCCCC2)N1C(=O)c1ccccc1 (stereo not drawn) the results were AmpC nodet inh 29%.
Screening CCCS(=O)(=O)c1nc(S(=O)(=O)c2ccc(C)cc2)c(N2CCCC2)s1 returned AmpC nodet inh 15%.
For Cc1cc(Cl)c(S(=O)(=O)Nc2ccon2)cc1OCC(=O)NC1CCCCC1 the results were AmpC nodet inh -2%.
`CCOC(=O)c1c(C)n(OCc2ccccc2)c2ccc3nonc3c12` gave AmpC nodet inh 0%.
Screening COc1ccc(N2CCN(CCCNC(=O)C3CCCN(S(=O)(=O)c4cnc[nH]4)C3)CC2)cc1 (stereo not drawn) returned AmpC nodet inh 4µM*[single pt active].
Screening COC(=O)c1ccccc1NC(=O)N1CCCC1 returned AmpC nodet inh -1%.
For CC(=O)Nn1cc2c(=O)n(C)c(=O)n(C)c2c1 the results were AmpC nodet inh 6%.
Screening N#Cc1ccccc1CSc1nc(O)cc(=O)[nH]1 returned AmpC nodet inh -4%.
Cc1nn(Cc2ccccc2Cl)c(C)c1NC(=O)c1noc2c1CCCCC2 was read as AmpC nodet inh 72%.
O=C(NC1CCCc2ccccc21)c1ccc(CNc2c(N3CCOCC3)c(=O)c2=O)cc1 (stereo not drawn) was read as AmpC nodet inh 64%.
For COCCCN1C(=O)C(O)=C(C(=O)c2ccco2)C1c1ccccc1 (stereo not drawn) the results were AmpC nodet inh -13%.
Screening CCOC(=O)C(Cc1ccccc1)NC(=O)CCc1c(C)nc2ncnn2c1C (stereo not drawn) returned AmpC nodet inh 26%.
Screening CN(C)c1ccc(N=Cc2nc(-c3ccccc3)oc2O)cc1 returned AmpC nodet inh 9%.
COc1ccccc1-c1c(C)oc2cc(OC(=O)c3ccco3)ccc2c1=O was read as AmpC nodet inh 50%.
Screening N#Cc1c(N)[nH]c(=S)c(C#N)c1-c1ccccc1 returned AmpC nodet inh -16%.
Screening O=NN(CCO)CCO returned AmpC nodet inh -1%.
Screening COc1ccc(-n2c(=O)c(-c3cc(F)cc(F)c3)nc3cnc(N(C)C)nc32)cc1 returned AmpC nodet inh 0%.
For CCOc1nc2ccccc2nc1NS(=O)(=O)c1ccccc1 the results were AmpC nodet inh -16%.
`C[N+](C)(C)c1ccc([C@H](N)C(=O)O)cc1` gave AmpC nodet inh 9%[5.75 µM].
Screening COC(=O)c1ccccc1NC(=O)CSc1nnnn1-c1ccc(C)cc1C returned AmpC nodet inh 79%.
Screening C=C[C@@H]1CN2CC[C@@H]1C[C@H]2[C@H](O)c1ccnc2ccccc12 returned AmpC nodet inh -1%.
For c1ccc(N2CCN(CCc3nnc4n3CCCCC4)CC2)cc1 the results were AmpC nodet inh -1%.
Screening COc1ccc(-c2[nH]ncc2-c2ccc(Cl)cc2)c(O)c1 returned AmpC nodet inh -2%.
Screening COCCn1c(=S)[nH]c2cc(C(=O)N3CCc4ccccc43)ccc2c1=O returned AmpC nodet inh 15%.
O=C(CSC1=NCCN1)c1ccccc1 was read as AmpC nodet inh -4%[5.75 µM].
Screening N#Cc1ccc(CSc2nnc(-c3cnccn3)o2)cc1 returned AmpC nodet inh -7%.
Screening Cc1c(-n2c(CN3C(=O)c4ccccc4C3=O)nc3ccccc3c2=O)c(=O)n(-c2ccccc2)n1C returned AmpC nodet inh 22%.
CSc1nc(-c2ccccc2)nc(N2CCCC2)c1C(C)=O was read as AmpC nodet inh 37%.
`CCCc1cc2c(n1Cc1cccc(Cl)c1)C(C)C1CN(C(=O)c3ccccc3)C(C)(C(=O)OC)C21` (stereo not drawn) gave AmpC nodet inh 129%.
Screening O=C(C1CC(=O)N(c2ccccc2)C1)N1CCN(C2=NS(=O)(=O)c3ccccc32)CC1 (stereo not drawn) returned AmpC nodet inh 26%.
For CCOc1cc(C2C(C(=O)OC)=C(C)N=C3SC(C)C(=O)N32)ccc1OC(C)=O (stereo not drawn) the results were AmpC nodet inh 81%.
`Cc1cc(C(=O)NCc2ccccc2)c(=O)[nH]c1C` gave AmpC nodet inh -7%.
`COC(=O)C1=C(C)N(CCC2=CCCCC2)C(=O)C1` gave AmpC nodet inh 20%.
For O=C(Cn1c(SCC(=O)NC2CCCC2)nnc1-c1ccncc1)Nc1ccc2c(c1)OCO2 the results were AmpC nodet inh 31%.
`CCC(CC)C(=O)NCCc1cc2cc(C)c(C)cc2[nH]c1=O` gave AmpC nodet inh 1%.
For CCOC(=O)c1sc(=S)n(-c2cc(F)ccc2F)c1N the results were AmpC nodet inh 3%.
`CCCC(c1cc(C(C)(C)C)c(O)cc1C)c1cc(C(C)(C)C)c(O)cc1C` gave AmpC nodet inh 4µM*[single pt active].
O=C(CN1CCN(c2nc(-c3ccccc3)cs2)CC1)NCc1ccc2c(c1)OCO2 was read as AmpC nodet inh 102%.
Screening CCOC(=O)N(CC)c1ccc(C(O)(C(=O)OC)C(F)(F)F)cc1 (stereo not drawn) returned AmpC nodet inh 21%.
`COCCCNC(=O)CCCn1c(=O)[nH]c2ccccc2c1=O` gave AmpC nodet inh -9%.
`COc1ccc(N2CCN(S(=O)(=O)c3cccc(C(F)(F)F)c3)CC2)cc1` gave AmpC nodet inh -4%.
For CCOc1ccc(C2CC(=O)NC3=C2C(=O)CCC3)cc1Cl (stereo not drawn) the results were AmpC nodet inh 8%.
Screening Nc1c2ccccc2nc2c(O)cccc12 returned AmpC nodet inh 8%[12.8 µM].
CCOC(=O)N1CCN(C(=O)c2ccc3c(c2)NC(=O)C(N2CCOCC2)S3)CC1 (stereo not drawn) was read as AmpC nodet inh 36%.
`C=C(C)c1nc(N)nc(N)n1` gave AmpC nodet inh -6%.
COc1ccc(S(=O)(=O)N2CCN(c3ccc(C)cc3C)CC2)cc1OC was read as AmpC nodet inh 105%.

The final four entries of the section before are carried over, then new ones follow.
Screening Nc1c2ccccc2nc2c(O)cccc12 returned AmpC nodet inh 8%[12.8 µM].
CCOC(=O)N1CCN(C(=O)c2ccc3c(c2)NC(=O)C(N2CCOCC2)S3)CC1 (stereo not drawn) was read as AmpC nodet inh 36%.
`C=C(C)c1nc(N)nc(N)n1` gave AmpC nodet inh -6%.
COc1ccc(S(=O)(=O)N2CCN(c3ccc(C)cc3C)CC2)cc1OC was read as AmpC nodet inh 105%.
CCCCSc1nnc2nc(C)cc(C)n12 was read as AmpC nodet inh 2%.
Cc1ccc(CNC(=O)C2c3ccccc3C(=O)N3CCc4ccccc4C23)o1 (stereo not drawn) was read as AmpC nodet inh 14%.
For O=C(COc1ncnc2ccc(Br)cc12)Nc1ccc(N2CCOCC2)cc1 the results were AmpC nodet inh 55%.
CCOC(=O)c1oc2c(CN3CCCCC3C)c(O)ccc2c(=O)c1-c1ccc(OC)c(OC)c1 (stereo not drawn) was read as AmpC nodet inh 42%.
For CCOC(=O)c1sc2nc3c(cc2c1N)COC(C)(C)C3 the results were AmpC nodet inh 6%.
COc1ccccc1C(=O)Nc1cc(-c2nn3c(C)nnc3s2)ccc1C was read as AmpC nodet inh 13%.
`CN1/C(=C\C(=O)C(F)F)C(C)(C)c2ccccc21` gave AmpC nodet inh 9%.
Cc1cc(-c2ccccc2)nc(N2CCN(c3ccccn3)CC2)n1 was read as AmpC nodet inh 43%.
COc1ccc([C@@H]2OC[C@]3(COC(C)=O)[C@H](C)C=C(C)[C@@H]2[C@H]3C)cc1 was read as AmpC nodet inh 58%.
For O=S(=O)(c1cccc(F)c1)N1CCN(Cc2ccc3c(c2)OCO3)CC1 the results were AmpC nodet inh 30%.
For Cc1cc(C)c(NC(=O)CCCOC(=O)C2=COCCO2)c(C)c1 the results were AmpC nodet inh 22%.
Screening Cc1ccc(-c2nnn(CC(=O)N(Cc3cccs3)C(C(=O)NC(C)(C)C)c3ccco3)n2)o1 (stereo not drawn) returned AmpC nodet inh 30%.
Screening Cc1cccc(NC(=O)CCNS(=O)(=O)c2cccc3nsnc23)c1 returned AmpC nodet inh -6%.
CN1/C(=C\C(=O)COC(=O)C2COc3ccccc3O2)C(C)(C)c2ccccc21 (stereo not drawn) was read as AmpC nodet inh 12%.
`O=C(c1ccccc1CCc1ccccc1)N1CCOCC1` gave AmpC nodet inh 38%.
CCOC(=O)c1sc(=S)n(CC)c1N was read as AmpC nodet inh 4%.
`CC(C)(Oc1ccc(Cl)cc1)C(=O)OCC(=O)N1CCCC1` gave AmpC nodet inh 19%.
CN(Cc1ccccc1)C(=O)c1ccccc1NC(=O)c1ccco1 was read as AmpC nodet inh 12%.
O=C(O)C12CC3CC(C1)CC(n1cnc(Cl)n1)(C3)C2 was read as AmpC nodet inh -1%.
`OC(COc1ccc2c(c1)OCO2)CN1CCc2ccccc2C1` (stereo not drawn) gave AmpC nodet inh 7%.
`Cc1cc(C)nc(SCc2nnc(SCC(=O)N3CCCc4ccccc43)n2C)n1` gave AmpC nodet inh 27%.
Screening CS(=O)(=O)Cc1nc2ccccc2oc1=O returned AmpC nodet inh -4%.
CC1(C)CC(N2CCN(c3ccccc3)CC2)=CC(=[N+]2CCCC2)C1 was read as AmpC nodet inh 13%.
For COc1ccc2[nH]cc(CCNc3cc(-c4cccnc4)ncn3)c2c1 the results were AmpC nodet inh 9%.

Gathered by group, the entries above containing a thiophene ring, fused or not (2)
For CCOC(=O)c1sc2nc3c(cc2c1N)COC(C)(C)C3 the results were AmpC nodet inh 6%.
Screening Cc1ccc(-c2nnn(CC(=O)N(Cc3cccs3)C(C(=O)NC(C)(C)C)c3ccco3)n2)o1 (stereo not drawn) returned AmpC nodet inh 30%.

(next part)
Screening Cc1cc(C(=O)NCCC2=CCCCC2)no1 returned AmpC nodet inh 0%.
Screening Cc1cc(C)n2nc[n+](C)c2n1 returned AmpC nodet inh 3%.
CCn1c(CCNC(=O)c2cccs2)nnc1SCC(=O)NC1CCCCC1 was read as AmpC nodet inh 19%.
CCc1cc(C(=O)COc2ccccc2F)c(O)cc1O was read as AmpC nodet inh -12%.
For CCC(CCC(=O)Nc1ccn(-c2ccccc2)n1)C(=O)O (stereo not drawn) the results were AmpC nodet inh 0%.
`CCSc1nc2ccccc2n1Cc1nc(N)nc(N(C)C)n1` gave AmpC nodet inh 15%.
`CCCC(=O)Nc1cc2c(cc1C(=O)c1ccccc1)OCCO2` gave AmpC nodet inh 21%.
`CC(C)=O` gave AmpC nodet inh -4%.
For Cc1ccccc1NC(=O)CSc1nc(Nc2ccccc2)nc(N2CCOCC2)n1 the results were AmpC nodet inh 24%.
Screening O=C(CCS(=O)NCc1ccccc1)NCc1ccccc1 (stereo not drawn) returned AmpC nodet inh -5%.
For COc1ccc(S(=O)(=O)NCc2ccco2)cc1-c1nnc2c3ccccc3c(C)nn12 the results were AmpC nodet inh 69%.
`COc1ccc(S(=O)(=O)Nc2ccc3c(c2)OCCO3)cc1Cl` gave AmpC nodet inh -11%.
Cc1cc(C)n2nc(S(=O)(=O)NCCc3ccccc3)nc2n1 was read as AmpC nodet inh 4µM*[single pt active].
Cc1ccc(NC(=O)N(C2=NCC(C)S2)c2ccccc2)cc1 (stereo not drawn) was read as AmpC nodet inh 8%.
For CCc1c(C#N)c(N)nc(SCC(=O)OCc2ccccc2)c1C#N the results were AmpC nodet inh -5%.
For CCN(CC)CCN=Cc1c(O)n(C2CCCCCC2)c(=O)[nH]c1=O the results were AmpC nodet inh -8%.
`COc1ccc(NC(=O)C2CCCN(c3c4c(nc5ncnn35)CCC4)C2)cc1OC` (stereo not drawn) gave AmpC nodet inh 55%.
For O=S(=O)(/N=C/c1ccccc1O)c1cccs1 the results were AmpC nodet inh 2%.
COC(=O)CSc1nnc([C@H](Cc2ccccc2)NC(=O)OC(C)(C)C)o1 was read as AmpC nodet inh 35%.
For Cc1nc(SCC(=O)Nc2c(C)n(C)n(-c3ccccc3)c2=O)n[nH]1 the results were AmpC nodet inh 4%.
For O=C(Nc1cnc2ccccc2c1)N1CCCCC1 the results were AmpC nodet inh -6%.
CCOc1ccc(-c2cc(CCCC(=O)NCCc3ccc(OC)c(OC)c3OC)no2)cc1 was read as AmpC nodet inh 93%.
`COC(=O)C1=C(CN2CCCc3ccccc32)NC(=O)NC1c1ccc(F)cc1` (stereo not drawn) gave AmpC nodet inh 39%.
Screening Nc1cccc2cc(S(=O)(=O)Nc3ccc(C(=O)O)cc3)ccc12 returned AmpC nodet inh -13%[5.75 µM].

For convenience, 2 of the compounds above.
Cc1cc(C)n2nc(S(=O)(=O)NCCc3ccccc3)nc2n1 was read as AmpC nodet inh 4µM*[single pt active].
Cc1ccc(NC(=O)N(C2=NCC(C)S2)c2ccccc2)cc1 (stereo not drawn) was read as AmpC nodet inh 8%.

Of the compounds above, 2 contain bromine.
CN(C)CCN1C(=O)c2oc3ccccc3c(=O)c2C1c1cccc(Br)c1 (stereo not drawn) was read as AmpC nodet inh 38%.
For O=C(COc1ncnc2ccc(Br)cc12)Nc1ccc(N2CCOCC2)cc1 the results were AmpC nodet inh 55%.

The listing continues:
Cn1c(=O)c2ncn(CC(=O)Nc3ccc4c5c(cccc35)CC4)c2n(C)c1=O was read as AmpC nodet inh 85%.
`CC(=O)C1=C(O)C(=O)N(Cc2ccco2)C1c1ccc(F)cc1` (stereo not drawn) gave AmpC nodet inh -22%.
For CC(=O)OCCCCON1C(=O)c2ccccc2C1=O the results were AmpC nodet inh 4%.
`Cc1ccc(-c2nc(CS(=O)(=O)CC(=O)NC3CCCCC3C)c(C)o2)cc1` (stereo not drawn) gave AmpC nodet inh 31%.
Screening O=C(O)c1ccccc1Nc1ccccc1 returned AmpC nodet inh -1%.
`COc1ccc(/C(CC2(O)C(=O)Nc3ccccc32)=N\O)cc1` (stereo not drawn) gave AmpC nodet inh 0%.
